NPYLR7 ag: agonists of mosquito NPYLR7 receptor, primary screen, cell-based, Aedes aegypti, calcium fluorescence, mosquito biting behavior; 270,000 tested, 0.15% active; HEK293T NPYLR7/Galpha15, GCaMP6s calcium fluorescence; Aedes aegypti neuropeptide Y-like receptor 7 (NPYLR7); activation, % at 10 µM; in the data active = activation above about 40%;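 also: 0% = vehicle and 100% = reference agonist at the receptor; some compounds past the cut are filed as inactive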
NPYLR7 ag max-min: further read-out of NPYLR7 ag, marked with its call; activation, %; measured here: Max-Min RFU normalised activation; some inactives read as strong as hits;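 span of the calcium signal over five minutes; 0% = vehicle and 100% = native peptide agonist; compound fluorescence can raise it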
* marks the source's active call; other numbers are inactive results; & = joins results of further samples. This is a subset; the hit share may differ from the screen's.

nr | smiles | NPYLR7 ag | NPYLR7 ag max-min
1 | CCCc1nc(C)sc1C(=O)Nc1ccc2c(c1)CCC2 | -6 | -15
2 | Cn1cc(CNC(Cn2ccnc2)c2ccccc2)c(-c2ccc3c(c2)OCCO3)n1 (stereo not drawn) | 7 | -6
3 | CN(CCCc1cc(-c2ccc(F)cc2)n(C)n1)c1c(C#N)c(=O)n(C)c(=O)n1C | -2 | -2
4 | Cc1cnc(C(=O)OC(C)c2nc(C(C)(C)C)no2)cn1 (stereo not drawn) | -14 | -11
5 | Clc1ccc(Cn2ncc3c(N4CCN(Cc5ccccc5Cl)CC4)ncnc32)cc1 | 0 | -3
6 | COc1ccc(Cl)cc1C1=N/C(=C\c2cccc(C(F)(F)F)c2)C(=O)O1 | -2 | 1
7 | CCc1ccc(S(=O)(=O)N2CCCC(CNS(=O)(=O)c3cccs3)C2)s1 (stereo not drawn) | 1 | 0
8 | O=C(O)c1cn(C2CC2)c2cc(N3CCNCC3)c(F)cc2c1=O | -14&-2&-5 | -20&-5&-5
9 | O=C(c1ccc(F)cc1F)N1CCN(C(C(=O)N2CCOCC2)C2CCCC2)CC1 (stereo not drawn) | -3 | -2
10 | CC(C)C(=O)NC1CCCN(C(=O)c2ccccc2C(=O)c2ccc(Cl)cc2)C1 (stereo not drawn) | -1 | -2
11 | Cc1nccn1-c1ccc(CNC(=O)NCCC(C)c2ccccc2)cn1 (stereo not drawn) | 1 | 7
12 | Cc1nc2nc(N)[nH]n2c(=O)c1Br | 4&5 | 1&-1
13 | CC(C)(O)C#Cc1ccc(C(=O)N2CCCC(CO)(Cc3cccc(Cl)c3)C2)cc1 (stereo not drawn) | 18 | 3
14 | CCOc1ccc(NC(=O)Cn2ccn3nc(-c4ccc(OCC)cc4)cc3c2=O)cc1 | 7 | 6
15 | CCOC(=O)CCNC(=O)C1=COC2=NC(=O)NCCN12 | 2 | -2
16 | CCOC(=O)c1c(C)c(C(=O)C(C)N(C)C(=O)c2cccc(C(F)(F)F)c2)c(C)n1C (stereo not drawn) | -11 | -10
17 | Cn1nc(C(=O)O)c2c1CCN(C(=O)c1cccc(OCC(F)(F)F)c1)C2 | -1 | 2
18 | Cc1cc(C)n(CC2(CNCc3nc(-c4ccco4)no3)CC2)n1 | 11 | 6
19 | COC(=O)C1=C(C)NC(C)=C([N+](=O)[O-])C1c1ccccc1C(F)(F)F (stereo not drawn) | 6 | -11
20 | CC(=O)Nc1cc(F)c(F)cc1NC(=O)c1ccn(-c2ccccc2)n1 | 10 | 7
21 | CC(O)CNc1nccnc1-c1cccc(C=O)c1 (stereo not drawn) | -2 | -6
22 | COc1cccc(N2CC(CNC(=O)c3ccccc3S(=O)(=O)C(F)F)OC2=O)c1 (stereo not drawn) | 8 | 10
23 | Cc1[nH]c2ccccc2c1CC(=O)NCc1noc(C2CCCC2)n1 | -3 | -4
24 | CCN(CC)S(=O)(=O)c1ccc(OC(C)C)c(NS(=O)(=O)c2c(C)c(C)cc(C)c2C)c1 | 1 | 0
25 | COCC(=O)N1CCN(c2cc(Oc3ccc(F)cc3F)ncn2)CC1C (stereo not drawn) | -10 | -7
26 | COc1cccc(C(CN2CCN(C(=O)Nc3ccccc3OC)CC2)OCc2ccc(C)cc2)c1 (stereo not drawn) | 21 | 9
27 | O=C(O)c1cc(-c2cccc3c2OCC3)cc(S(=O)(=O)N2CCCC2)c1 | 0 | 10
28 | CCC1c2cccn2CCN1C(=O)CCN1CCCCCC1=O (stereo not drawn) | 14 | 8
29 | COc1ccc(C2=NC(=Cc3ccsc3)C(=O)O2)cc1OC | 1 | 5
30 | Cc1cc(NC(=O)C(C)C)n(-c2nc3c(c(=O)[nH]2)CCC3)n1 | 13 | 3
31 | C=CCN(C(=O)c1ccc(-c2ccc(OCC)cc2)s1)C1CCCCC1 | 4 | 4
32 | O=C(Cn1ccc(C(F)(F)F)n1)Nc1cccc2c1CCCC2 | 2 | 1
33 | CO[C@H]1C[C@H](O[C@H]2[C@H](C)[C@@H](O[C@@H]3O[C@H](C)C[C@H](N(C)C)[C@H]3OC(C)=O)[C@@H](C)C[C@@]3(CO3)C(=O)[C@H](C)[C@@H](OC(C)=O)[C@@H](C)[C@@H](C)OC(=O)[C@@H]2C)O[C@@H](C)[C@@H]1OC(C)=O | -1 | -5
34 | COc1cccc(CN(CC(O)COCc2ccco2)C2CC2)c1OC (stereo not drawn) | 22 | 18
35 | CCCSc1nc2c(c(=O)[nH]1)C(c1ccc(C)cc1)C(C(=O)OC(C)C)C(C)=N2 (stereo not drawn) | -5 | -9
36 | O=C(c1cccc(-c2ccco2)c1)N1CCCC(Nc2ccc3c(c2)OCCO3)C1 (stereo not drawn) | 3 | 1
37 | C=CCN(C(=O)C(C)S(C)(=O)=O)C1CCCC1 (stereo not drawn) | 0 | -8
38 | Cc1ccc(C)c(S(=O)(=O)N2CCC(c3nc(-c4ccc(F)c(F)c4)no3)CC2)c1 | -9 | -12
39 | CCC(C)Nc1nc(N)c([N+](=O)[O-])c(NCCO)n1 (stereo not drawn) | 19 | 11
40 | CN(c1ccccc1)N1CC(C(=O)N2CCC[C@H]2C(=O)OCc2ccccc2)CC1=O (stereo partly drawn) | -6 | -15
41 | c1n[nH]c(C2CCCCC2)c1CN1CCCC(N2CCOCC2)C1 (stereo not drawn) | 1 | 0
42 | O=S(=O)(c1ccc(F)cc1)N1CCN(c2ccc3nncn3n2)CC1 | 2 | 6
43 | CCOC(=O)c1cc(-c2ccc3ccccc3c2)n(-c2ccc(C(=O)N3C(C)C=CC3C)cc2)n1 (stereo not drawn) | 7 | -1
44 | CCCc1ccc(-c2nc(-c3ccncc3)no2)cc1 | 1 | 5
45 | Cc1ccc(C(NS(=O)(=O)c2cc(F)cc(F)c2)C2CC2)cc1 (stereo not drawn) | 1 | 0
46 | CCc1nc2ccc(C(=O)Nc3ccc(OC)c(OC)c3)cn2c1N(C)C(=O)C1CCCCC1 | -10 | -13
47 | CC(CCc1ccco1)Nc1ncnc2sc3c(c12)CCNC3 (stereo not drawn) | -4 | -13
48 | CN(Cc1nc2ccc(F)cc2[nH]1)Cc1nc(CCc2ccccc2)no1 | 12 | 7
49 | COCCN(CC(=O)N(CCc1c[nH]c2ccccc12)Cc1ccccc1OC)C(=O)c1cc(C(F)(F)F)cc(C(F)(F)F)c1 | 23 | 30
50 | Cc1ccc(OCc2occc2C(=O)N2CCc3c(nc[nH]c3=O)C2)cc1 | 5 | 1

(next part)
nr | smiles | NPYLR7 ag | NPYLR7 ag max-min
51 | Cc1ccc(CN2CCN(Cc3nc(C(C)C)cs3)CC2CCO)cc1 (stereo not drawn) | 12 | 5
52 | COc1cccc(OCCn2c(C3CC(=O)N(Cc4ccc(F)cc4)C3)nc3ccccc32)c1 (stereo not drawn) | -2 | 6
53 | CNC(=O)c1nn(-c2ccc(F)cc2)c(=O)cc1OC | 15 | 14
54 | Clc1ccc(C=Nc2ccc3c(c2)OCO3)cc1 | 8 | 4
55 | CCCCCCc1ccc(C(=O)N2CCN(C(=O)CCCSc3nnc(Cc4ccccc4)n3-c3ccccc3)CC2C)cc1 (stereo not drawn) | 9 | 20
56 | C#CCOCC(O)CN(Cc1c(-c2ccccc2)nn(C)c1Oc1cccc(C)c1)CC1CCCO1 (stereo not drawn) | -8 | -4
57 | O=C(Nc1ccc(NC2CCCCC2)cc1)c1nccc2ccccc12 | 1 | 11
58 | O=C(NCCc1csc2nc(-c3cccs3)nn12)c1ccc(F)c(F)c1 | -6 | -3
59 | Fc1c(F)c(N2CCCCCC2)c(F)c(F)c1C=CCN1CCOCC1 | -1 | -3
60 | CCOC(=O)N1CCN(C(=O)COC(=O)C23CC4CC(CC(Cl)(C4)C2)C3)CC1 | 4 | 11
61 | O=C1C(c2c(O)[nH]c3ccccc23)=Nc2ccccc21 | -2&5 | -4&5
62 | Cc1cc(C)nc(SCc2cc(=O)c(OC(=O)c3ccccc3C)co2)n1 | -15 | -15
63 | CC1C2C(C)N(C)C(=O)N(C)C2N(C)C(=O)N1C (stereo not drawn) | 13 | 5
64 | CC(NC(=O)C1CCN(Cc2ccco2)CC1)c1cn2ncsc2n1 (stereo not drawn) | 0 | -10
65 | COC(=O)c1cccc(C(=O)N(C)Cc2ccncc2C)c1 | 3 | 1
66 | CCc1c(C)nn(-c2ccc(C(=O)NCCc3ccccc3F)cc2)c1C | 23 | 11
67 | CCS(=O)(=O)c1cccc(NCc2ccccc2)c1 | -9 | -6
68 | Cc1nn(C)c(C)c1-c1cc(C(=O)N2CC(c3ccncc3)C2)n(C)n1 | -2 | -9
69 | CC(=O)N1CCC(C(=O)N2CCN(CC(OCc3ccc(C(F)(F)F)cc3)c3ccc(Cl)cc3)CC2)CC1 (stereo not drawn) | -4 | 7
70 | CC(=O)c1sccc1-c1cccc(C(C)N(C)C)c1 (stereo not drawn) | 8 | 6
71 | O=C(NC(c1cccs1)C1CCCC1)c1cc(=O)c2ccccc2o1 (stereo not drawn) | 3 | -1
72 | OC(CSc1nnc2c(Cl)cc(Cl)cn12)c1ccccc1F (stereo not drawn) | 12 | 6
73 | CC(C)NC(=O)c1nnc2n1CCN(C(=O)CCC1CCCC1)C2 | 8 | 5
74 | CCN(CC)C(=O)COC(=O)CN1C(=O)NC2(CCCCC2C)C1=O (stereo not drawn) | 10 | 15
75 | CCCc1nn(-c2ccccc2Cl)c(CCC)c1C(=O)N(C)Cc1ccccc1 | 36 | 27
76 | CC(N)(Cc1ccc(O)c(O)c1)C(=O)O (stereo not drawn) | 16&0 | 7&-21
77 | CN(C)c1ncc(-c2nccn2CCc2cn[nH]c2)cn1 | 6 | 1
78 | CCN(CC)C(=O)Oc1ccc2c(ccn2Cc2ccc(C#N)cc2)c1-c1ccc(F)c(Cl)c1 | 14 | 16
79 | COc1ccc(CNC(=O)C(C)N2CC(C)OC(C)C2)cc1 (stereo not drawn) | 8 | 8
80 | O=C(c1cn(Cc2ccc(F)cc2Cl)nn1)N1CCCCC1c1ccc(F)cc1 (stereo not drawn) | 6 | 3
81 | O=S(=O)(c1ccccc1)c1nnn2c1nc(NCCc1c[nH]c3ccccc13)c1ccccc12 | 5 | 5
82 | Cc1ccc2c(C)c(C(=O)N3CCCCC3c3ccccn3)oc2c1C (stereo not drawn) | 3 | -3
83 | N#Cc1ccc(OCC(O)CN2CCN(S(=O)(=O)c3ccccc3Cl)CC2)cc1 (stereo not drawn) | 6 | 7
84 | CN(C)C(CNC(=O)Nc1cccc(Cn2cccnc2=O)c1)c1ccccc1Cl (stereo not drawn) | 13 | 6
85 | CCOC(=O)c1cccc(C(=O)Nc2nnc(C)s2)n1 | 11 | 7
86 | Nc1ccc(-c2ncccc2O)cc1 | -8 | -12
87 | C=Cc1ccc(Cn2c(C)c(C(=O)NCc3ccc(C(C)C)cc3)sc2=O)cc1 | -8 | -3
88 | CS(=O)(=O)c1ccc(CN2CCN3CCNC(=O)C3C2)cc1 (stereo not drawn) | 2 | -2
89 | COCCNc1cc(C)nc2c(-c3ccccc3)c(C)nn12 | -6 | -6
90 | CC(C)C1CN(C(=O)CNC(N)=O)CCCN1CC1CC1 (stereo not drawn) | 26 | 20
91 | O=[N+]([O-])c1cccnc1Nc1cc(Cl)cc(Cl)c1 | 11 | 10
92 | CC1CN(CC(=O)Nc2ccc(S(=O)(=O)N3CCCC3)cc2)CC(C)O1 (stereo not drawn) | 12 | 11
93 | O=C(Cn1cnc([N+](=O)[O-])n1)NCc1cccs1 | -8 | -13
94 | CC(C)n1cc(CN2CCC(CCC(=O)N3CCN(c4ccccc4)CC3)CC2)cn1 | 4 | 3
95 | Cc1ccc(-c2cc3c(=O)n(CC(=O)NC4CCCC4)ccn3n2)cc1 | 8 | 5
96 | CC(C(=O)NCc1ccc(Cl)cc1)n1c(=O)c(N2CCOCC2)nc2ccccc21 (stereo not drawn) | 0 | 0
97 | CC(C)n1cnnc1CN(C)Cc1ccc2c(c1)OC(F)(F)O2 | 25 | 21
98 | COCCCN(Cc1ccc(C(O)(c2cccc(F)c2)c2cccc(F)c2)o1)Cc1ccccc1OC | -8 | -2
99 | CCCCN(CC(=O)Nc1cc(-c2ccccc2)nn1-c1ccc(Cl)c(Cl)c1)C(=O)Nc1cccc(C(F)(F)F)c1 | 1 | 10
100 | Cc1cccc(C2=N/C(=C\C(Cl)=C\c3ccccc3)C(=O)O2)c1 | 0 | -4

(continued)
nr | smiles | NPYLR7 ag | NPYLR7 ag max-min
101 | Cc1c(C(=O)Nc2cc3c(cc2Cl)OCO3)oc2c(Cl)cccc12 | 3 | 6
102 | Cc1cccc(OCC(O)CN2C(=O)NC(C)(c3ccc4c(c3)OCO4)C2=O)c1 (stereo not drawn) | 5 | 3
103 | O=C(Nc1c(C(=O)N2CCOCC2)oc2ccccc12)c1ccccc1 | 12 | 2
104 | COc1ccc(CCOC(=O)C2CCCCN2C(=O)CC2CC2)cc1OC (stereo not drawn) | -9 | -13
105 | N#CC1(c2ccccn2)Cc2cc([N+](=O)[O-])ccc2N2CCCCC21 (stereo not drawn) | -2 | 1
106 | CONC(=O)c1cc2c(cc1Br)n(C)c(=O)n2C | 5 | 2
107 | Cc1cc(CN(C)Cc2cnn(C)c2C)oc1C | 7 | -2
108 | O=C(Nc1cc(-c2ccc(Cl)cc2)nn1-c1ccc(Br)cc1)C1CCCCC1 | 21 | 28
109 | N#CC(=Cc1cccc(O)c1)c1nc2ccccc2[nH]1 | 15 | 16
110 | COc1cccc(C(=O)N2CCN(C(=O)CCN3CCc4sccc4C3c3cccc(F)c3)CC2)c1 (stereo not drawn) | 9 | 0

Assay outcomes deposited in PubChem BioAssay by Fisher Drug Discovery Resource Center.
